# Vaccinia stage – blocks a specific stage of Vaccinia orthopoxvirus infection; Vaccinia-infected cells, mCherry/Venus stage reporter fluorescence; stronger effect = lower value; some inactives read as strong as hits; activity change (mCherry), % (concentration not given with the values); 0.01% of 89,000 active; AID 1053133;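 active = mCherry past -33% and 40 or more points under the early reporter, replicates agreeing; inconclusive = past -33% without that gap or agreement; tested in A549 cells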;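 note: scaled between vehicle wells and reference inhibitor wells; 23 nL library stock went into each well; one replicate is shown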
# Vaccinia stage Venus – second read-out of Vaccinia stage, no call of its own (marks repeat the call); activity change (Venus), %; measured here: Venus reporter, other viral stage;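 negative = less Venus signal; first of two replicates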
# * hit, by the source's call; ? = inconclusive; nt = not tested or not shown.
SMILES,Vaccinia stage,Vaccinia stage Venus
CCNC(=O)[C@H]1[C@H](CO)[C@H]2Cn3c(ccc(-c4ccncc4)c3=O)[C@H]2N1Cc1ccccc1,6,1
O=C(Cc1cccnc1)N1CC(=O)N2[C@H](C1)[C@H](c1ccc(/C=C/c3ccccc3)cc1)[C@@H]2CO,?,nt
CN(C)CC(=O)N[C@@H]1C=C[C@H](CC(=O)O)O[C@H]1CO,14,11
C[C@@H]1CN([C@H](C)CO)C(=O)Cc2cc(NC(=O)Nc3ccc(F)cc3)ccc2O[C@H]1CN(C)C(=O)Nc1ccc(F)cc1,12,1
CO[C@@H]1CN(C)C(=O)c2ccc(NC(=O)c3ccno3)cc2OC[C@@H](C)N(S(C)(=O)=O)C[C@@H]1C,16,12
COc1ccc(NC(=O)N[C@H]2CC[C@@H](CC(=O)NCc3ccccn3)O[C@@H]2CO)cc1,-2,6
Cc1ccccc1S(=O)(=O)N1C[C@@H](O)COC[C@H]2O[C@@H](CC(=O)N3CCC(Cc4ccccc4)CC3)CC[C@@H]21,?,nt
C[C@@H]1CN([C@@H](C)CO)C(=O)c2cc(NC(=O)CCN3CCOCC3)ccc2O[C@@H]1CN(C)S(C)(=O)=O,-1,-4
C[C@@H]1CN([C@@H](C)CO)C(=O)c2cccc(NC(=O)Nc3ccc4c(c3)OCO4)c2O[C@H]1CN(C)S(=O)(=O)c1ccc(Cl)cc1,14,13
CN1C(=O)c2cc(NS(=O)(=O)c3cccc(F)c3)ccc2OC[C@@H]2O[C@H](CC(=O)O)CC[C@H]21,15,4
C[C@@H]1CCCCO[C@@H](CN(C)S(=O)(=O)c2cccs2)[C@H](C)CN([C@H](C)CO)C(=O)c2cc(NC(=O)CCC(F)(F)F)ccc2O1,-10,-7
C[C@@H]1CCCCO[C@H](CN(C)C(=O)Nc2ccccc2)[C@@H](C)CN([C@H](C)CO)C(=O)c2cc(NS(=O)(=O)c3cccs3)ccc2O1,10,5
Cc1ccc(S(=O)(=O)Nc2ccc3c(c2)C(=O)N([C@H](C)CO)C[C@H](C)[C@H](CN(C)C)O3)cc1,17,10
Cc1noc(C)c1S(=O)(=O)Nc1cccc2c1O[C@@H](CN(C)CC1CC1)[C@@H](C)CN([C@@H](C)CO)C2=O,26,18
CN(C)CC#Cc1ccc([C@H]2[C@H]3CN(CC4CC4)CCCCN3[C@H]2CO)cc1,21,6
CNC[C@H]1Oc2c(NS(=O)(=O)c3ccc(C)cc3)cccc2C(=O)N([C@H](C)CO)C[C@H]1C,-6,-1
COCC(=O)N(C)C[C@H]1Oc2cc(C#C[C@H](C)O)ccc2S(=O)(=O)N([C@@H](C)CO)C[C@H]1C,-1,0
COc1cccc(-c2ccc3c(c2)[C@H]2[C@H](CCN2C(=O)C2CCCCC2)[C@H](CO)N3)c1,?,nt
CN(C)c1ccc2c(c1)[C@@H]1C[C@@H](CC(=O)NCc3cccc(F)c3)O[C@H](CO)[C@@H]1O2,13,12
O=C(Cc1ccccn1)NCC[C@@H]1CC[C@H](NS(=O)(=O)c2ccc(Cl)cc2)[C@@H](CO)O1,-7,-1

# Of the compounds above, 2 have a COOH group:
SMILES,Vaccinia stage,Vaccinia stage Venus
CN(C)CC(=O)N[C@@H]1C=C[C@H](CC(=O)O)O[C@H]1CO,14,11
CN1C(=O)c2cc(NS(=O)(=O)c3cccc(F)c3)ccc2OC[C@@H]2O[C@H](CC(=O)O)CC[C@H]21,15,4

# 2 records drawn at random from those above:
SMILES,Vaccinia stage,Vaccinia stage Venus
C[C@@H]1CCCCO[C@H](CN(C)C(=O)Nc2ccccc2)[C@@H](C)CN([C@H](C)CO)C(=O)c2cc(NS(=O)(=O)c3cccs3)ccc2O1,10,5
CN(C)c1ccc2c(c1)[C@@H]1C[C@@H](CC(=O)NCc3cccc(F)c3)O[C@H](CO)[C@@H]1O2,13,12

# New compounds follow
SMILES,Vaccinia stage,Vaccinia stage Venus
CNC[C@@H]1Oc2cc(-c3ccc(C(=O)N(C)C)cc3)ccc2S(=O)(=O)N([C@H](C)CO)C[C@H]1C,28,18
COc1ccccc1NC(=O)N[C@@H]1C=C[C@@H](CC(=O)N2CCC(Cc3ccccc3)CC2)O[C@@H]1CO,-14,0
C[C@H](CO)N1C[C@H](C)[C@@H](CN(C)C(=O)Nc2ccc(F)cc2)Oc2c(NC(=O)Nc3ccc(F)cc3)cccc2C1=O,13,12
C[C@H](CO)N1C[C@H](C)[C@@H](CN(C)C(=O)Cc2ccccc2)OCCCC[C@H](C)Oc2ccc(NC(=O)CCCN(C)C)cc2C1=O,16,11
COc1ccc2c3c(n(C)c2c1)[C@@H](CO)N(C(=O)C1CCC1)CC31CN(C(=O)CN(C)C)C1,10,5
CCC(=O)N[C@H]1C=C[C@@H](CC(=O)NCC2CC2)O[C@H]1CO,11,11
C[C@H](CO)N1C[C@H](C)[C@@H](CN(C)C(=O)C2CCC2)Oc2ncc(C#CC3(O)CCCC3)cc2C1=O,17,0
COc1ccc(S(=O)(=O)Nc2cccc3c2O[C@@H](CN(C)CC2CCCCC2)[C@@H](C)CN([C@@H](C)CO)C3=O)cc1,-9,-10
COCC(=O)N(C)C[C@H]1Oc2ncc(-c3cccc(OC)c3)cc2C(=O)N([C@H](C)CO)C[C@@H]1C,34,19
COC(=O)[C@]1(Cc2ccccc2)N=C(c2ccc(OCCCO)cc2)O[C@@H]1c1ccccc1,-30,-22
COc1ccccc1NC(=O)N[C@H]1CC[C@@H](CCNC(=O)Cc2ccccn2)O[C@@H]1CO,6,6
C[C@@H]1CN([C@@H](C)CO)C(=O)c2cc(NC(=O)Nc3cccc4ccccc34)ccc2O[C@H]1CN(C)C(=O)Nc1cccc2ccccc12,21,17
N#C[C@H]1[C@H](c2ccccc2C2=CCCCC2)[C@@H](CO)N1C(=O)C1CCOCC1,3,-3
O=C(Nc1ccccc1)N1CCCCN2[C@H](CO)[C@H](c3ccc(C#Cc4ccccn4)cc3)[C@H]2C1,35,1
CC(C)NC(=O)N(C)C[C@@H]1OCCCC[C@H](C)Oc2ccc(NS(=O)(=O)c3ccccc3)cc2C(=O)N([C@H](C)CO)C[C@@H]1C,9,2
C[C@@H]1CN([C@@H](C)CO)C(=O)c2cccc(NS(=O)(=O)c3cccs3)c2O[C@@H]1CN(C)S(=O)(=O)c1ccc(F)cc1,17,5
O=C(C[C@@H]1CC[C@@H]2[C@H](COC[C@@H](O)CN2Cc2cc(F)ccc2F)O1)N[C@@H]1CCN(Cc2ccccc2)C1,-31,-19
COCC(=O)Nc1ccc2c(c1)C(=O)N(C)[C@H]1CC[C@H](CC(=O)NCC(F)(F)F)O[C@H]1CO2,11,5
Cc1noc(C)c1NC(=O)N(C)C[C@H]1Oc2c(NC(=O)c3nc4ccccc4s3)cccc2C(=O)N([C@H](C)CO)C[C@@H]1C,8,2
COc1ccc(NC(=O)N[C@H]2CC[C@@H](CCNC(=O)c3cc(Cl)cc(Cl)c3)O[C@H]2CO)cc1,-23,-12

# Structures above with a CF3 group, in the order listed:
SMILES,Vaccinia stage,Vaccinia stage Venus
C[C@@H]1CCCCO[C@@H](CN(C)S(=O)(=O)c2cccs2)[C@H](C)CN([C@H](C)CO)C(=O)c2cc(NC(=O)CCC(F)(F)F)ccc2O1,-10,-7
COCC(=O)Nc1ccc2c(c1)C(=O)N(C)[C@H]1CC[C@H](CC(=O)NCC(F)(F)F)O[C@H]1CO2,11,5

# Remaining list, next part:
SMILES,Vaccinia stage,Vaccinia stage Venus
COc1ccc(CN(C)C[C@H]2Oc3ccc(NC(=O)Nc4cccc5ccccc45)cc3CC(=O)N([C@@H](C)CO)C[C@H]2C)cc1,-13,-3
COCC(=O)N1CC(=O)N2[C@H](C1)[C@H](c1ccc(C#CCc3ccccc3)cc1)[C@@H]2CO,14,-8
Cc1ccc(S(=O)(=O)Nc2ccc3c(c2)C(=O)N([C@H](C)CO)C[C@H](C)[C@H](CN(C)C(=O)CCC(F)(F)F)OCCCC[C@@H](C)O3)cc1,30,18
CN(C)Cc1cn(CC[C@@H]2CC[C@H](NS(=O)(=O)c3ccc(-c4ccccc4)cc3)[C@H](CO)O2)nn1,-27,-26
C[C@@H]1CN([C@H](C)CO)C(=O)c2cccc(NS(=O)(=O)c3ccc(F)cc3)c2O[C@@H]1CN(C)S(=O)(=O)c1cccs1,-2,2
C[C@H]1CN([C@@H](C)CO)C(=O)c2cccc(NC(=O)NC3CCCCC3)c2O[C@@H]1CN(C)Cc1ccc(C(F)(F)F)cc1,?,nt
COCC#Cc1ccc([C@@H]2[C@H](CO)N3CCCCN(C(=O)CN(C)C)C[C@@H]23)cc1,11,2
CN1C(=O)c2cc(NC(=O)NC3CCCC3)ccc2OC[C@@H]2O[C@H](CC(=O)NC3CCC3)CC[C@H]21,3,4
Cc1ccc(S(=O)(=O)N(C)C[C@H]2Oc3c(NC(=O)c4cnccn4)cccc3C(=O)N([C@H](C)CO)C[C@@H]2C)cc1,20,15
C[C@@H]1CN([C@H](C)CO)C(=O)c2cc(NS(=O)(=O)c3cccs3)ccc2O[C@H]1CN(C)Cc1ccc(-c2ccccc2)cc1,-16,-16
C[C@@H]1CN([C@H](C)CO)C(=O)c2cc(NC(=O)c3ccncc3)ccc2O[C@@H](C)CCCCO[C@H]1CN(C)C(=O)Nc1ccc2c(c1)OCO2,46,23
CNC(=O)C[C@H]1CC[C@@H]2[C@@H](COc3ccc(NC(=O)c4ccccc4Cl)cc3C(=O)N2C)O1,2,10
C[C@@H]1CCCCO[C@@H](CN(C)S(=O)(=O)c2cccs2)[C@@H](C)CN([C@@H](C)CO)C(=O)c2cc(NC(=O)C3CCCCC3)ccc2O1,-9,-12
C[C@@H]1CCCCO[C@H](CN(C)C(=O)c2ccccc2)[C@@H](C)CN([C@@H](C)CO)C(=O)c2cc(NC(=O)C3CCCCC3)ccc2O1,-4,-10
N#C[C@H]1[C@@H](c2ccccc2C2=CCCC2)[C@H](CO)N1S(=O)(=O)c1cccc(F)c1,-1,1
Cc1ccc(-c2ccc([C@H]3[C@@H](CO)N4C(=O)CN(C(=O)c5ccncc5)C[C@@H]34)cc2)cc1,-3,8
COCC(=O)N(C)C[C@@H]1Oc2cc(C#CCN(C)C)ccc2S(=O)(=O)N([C@@H](C)CO)C[C@H]1C,2,-1
C[C@H](CO)N1C[C@H](C)[C@@H](CN(C)CC2CC2)Oc2ccc(NC(=O)Nc3ccc4c(c3)OCO4)cc2CC1=O,-13,-8
C[C@@H](NC(=O)C[C@H]1CC[C@H](NC(=O)C2CCC2)[C@@H](CO)O1)c1ccccc1,0,4
COc1cccc(CN2CCC3(CC2)CN(C(=O)C2CC2)[C@@H](CO)c2[nH]c4cc(OC)ccc4c23)c1,?,nt

# As entered above:
# Cc1ccc(-c2ccc([C@H]3[C@@H](CO)N4C(=O)CN(C(=O)c5ccncc5)C[C@@H]34)cc2)cc1 in Vaccinia stage Venus is listed with 8
# CNC(=O)C[C@H]1CC[C@@H]2[C@@H](COc3ccc(NC(=O)c4ccccc4Cl)cc3C(=O)N2C)O1 in Vaccinia stage is listed with 2

# Remaining list, next part.
SMILES,Vaccinia stage,Vaccinia stage Venus
C[C@@H]1CN([C@H](C)CO)C(=O)c2cc(NC(=O)Nc3ccc(C(F)(F)F)cc3)ccc2O[C@H]1CN(C)Cc1ccncc1,-25,-20
COc1ccccc1C#Cc1ccc2c(c1)[C@H]1[C@H](CCN1S(=O)(=O)c1ccccc1)[C@@H](CO)N2,-7,-7
COc1ccc(NC(=O)N2CC(=O)N3[C@H](CO)[C@H](c4ccc(Br)cc4)[C@@H]3C2)cc1,4,5
C=CCN(Cc1ccccc1)C(=O)[C@H]1N(Cc2ccc(OC)cc2)C(=O)[C@@H]2[C@@H](C(=O)O)C3C=CC21O3 (stereo partly specified),14,11
CCCC#Cc1ccc2c(c1)O[C@H](CN(C)C(=O)c1cccnc1)[C@H](C)CN([C@@H](C)CO)S2(=O)=O,1,-2
O=C(c1ccccn1)N1CC2(C1)[C@H](c1ccccc1)[C@H](CO)N2C(=O)C1CCCCC1,-7,-10
COc1ccccc1NC(=O)N1CC[C@H]2[C@@H]1c1cc(-c3ccccc3)ccc1N(C)[C@H]2CO,?,nt
O=C(C[C@@H]1CC[C@H]2[C@@H](COC[C@@H](O)CN2CC2CCOCC2)O1)NCC1CCCCC1,13,6
C[C@H]1CN([C@@H](C)CO)C(=O)c2cccc(NC(=O)C3CCCCC3)c2O[C@H]1CN(C)C(=O)NC1CCCCC1,13,7
O=C(c1cccc(F)c1)N1CC2(C1)[C@@H](c1ccccc1)[C@H](CO)N2C(=O)C1CCC1,1,16
CNC[C@H]1OCCCC[C@@H](C)Oc2ccc(NC(=O)Nc3ccccc3)cc2C(=O)N([C@@H](C)CO)C[C@@H]1C,-5,-12
C[C@H](NC(=O)C[C@@H]1C[C@@H]2c3cc(NS(=O)(=O)c4ccc(F)cc4)ccc3O[C@@H]2[C@H](CO)O1)c1ccccc1,-14,1
Cc1noc(C)c1S(=O)(=O)Nc1ccc2c(c1)C(=O)N([C@H](C)CO)C[C@H](C)[C@@H](CN(C)Cc1ccc(C(F)(F)F)cc1)OCCCC[C@@H](C)O2,-23,-30
CC(C)NC(=O)Nc1ccc2c(c1)CC(=O)N([C@@H](C)CO)C[C@H](C)[C@@H](CN(C)Cc1ccc(C(F)(F)F)cc1)O2,-3,-8
O=C(Cc1ccccc1)N1CC[C@@H]2[C@@H](CO)Nc3ccc(Br)cc3[C@@H]21,-8,-11
C[C@@H]1CN([C@@H](C)CO)S(=O)(=O)c2ccc(C3=CCCCC3)cc2O[C@@H]1CN(C)Cc1cccc(C(=O)O)c1,3,2
CO[C@@H]1CN(C)C(=O)c2cc(NC(=O)C3CCCC3)ccc2OC[C@@H](C)N(C(=O)Nc2ccc(C(F)(F)F)cc2)C[C@H]1C,?,nt
O=C(Nc1cccc(Cl)c1)N1C[C@@H]2[C@H](c3ccccc31)[C@H](CO)N2CC1CCOCC1,-21,-9
CC(=O)N(C)C[C@@H]1Oc2cc(-c3cccnc3)ccc2S(=O)(=O)N([C@@H](C)CO)C[C@H]1C,15,-1
O=C(C[C@@H]1C[C@H]2c3cc(NC(=O)Nc4ccc(C(F)(F)F)cc4)ccc3O[C@H]2[C@@H](CO)O1)NCc1cc(F)ccc1F,0,5

# Compound activity deposited in PubChem by Broad Institute.

# A portion of the library; rates above refer to the full screens.
